Bioassay records (PubChem)
Vaccinia Venus: vaccinia inhibition (Venus reporter). Vaccinia virus Venus reporter expression, fluorescence. Potency, µM (titrated, usually from 36.5 µM), without a hit: top-dose activity change, negative = inhibition, actives largely listed as inhibitors. 330,000 compounds, 0.46% hits; active means well fitted inhibition curve with a large enough effect; inconclusive means small, poorly fitted or top-dose-only effect; inactive means no such curve, though single readings can be large or run the other way; tested in A549 cells; note: nearly all actives have a fitted effect of over 30% in size; inactives centre near -10
Vaccinia mCherry: inhibitors of vaccinia virus infection (mCherry reporter signal); Vaccinia virus mCherry reporter infection, fluorescence; about a quarter of the inactives have no number; Potency, µM (top dose mostly 36.5 µM), without a hit: at the top dose activity change, negative = inhibition, usual class: inhibitors; 310,000 compounds, 0.63% hits; AID 720579; active = well fitted inhibition curve with a large enough effect; inconclusive = small, poorly fitted or top-dose-only effect; inactive = no such curve, though single readings can be large or run the other way; tested in A549 cells; note: nearly all actives have a fitted effect of over 35% in size; inactives centre near -10
Starred values were filed as active, the others as inactive; i = inactive; ? = inconclusive; / = not tested or not shown; & = joins results of further samples; [ ] = another dose, or the depositor's remark. % is set by controls: 0 for no effect and ±100 for the full control effect; potency is the fitted concentration of half-maximal effect.

SMILES	Vaccinia Venus	Vaccinia mCherry
C/C=C/C=C/C(=O)N1CC[C@]23c4ccccc4N[C@H]4N(C)c5cccc6c5[C@]42CCN([C@H]6C2OC2(C)C)[C@H]13 (stereo partly drawn)	-19%	12%
O=C(CN(Cc1cccs1)C(=O)CNS(=O)(=O)c1ccc(F)cc1)NCc1ccco1	-8%	/
CCC(=O)Nc1ccc2nc(SCCOc3ccccc3)sc2c1	-12%	i
O=C1Cc2cc(S(=O)(=O)Nc3cccc(C(F)(F)F)c3)cc3c2N1CCC3	-19%	-18%
CN(CCOc1ccccc1)C(=O)CCc1c[nH]c2ccccc12	-8%	-28%
CCOc1ccc(-n2nc3ccc(NC(=O)COc4ccccc4)cc3n2)cc1	-28%	-25%
CC(=O)c1ccc(NC(=O)COc2ccccc2-c2nc(-c3cccc(C)c3)no2)cc1	-6%	-10%
O=C(NC1CCS(=O)(=O)C1)c1cccc(S(=O)(=O)N2CCCCCC2)c1 (stereo not drawn)	5%	i
Nc1ccc2c(c1)C(O)c1ccc(Cl)cc1-2 (stereo not drawn)	?	-28%
COc1ccc(CNC(=O)COC(=O)CN2C(=O)COc3ccccc32)cc1	3%	-11%
CCOc1ccc(-c2nnc(SCC(=O)NCc3ccc(C)cc3)nc2-c2ccc(OCC)c(OC)c2)cc1OC	-12%	-6%
CCOc1cc2c3c(c1)C1(C(=O)N3C(C)(C)CC2C)C(C#N)=C(N)N2C(=C1C#N)Nc1ccccc12 (stereo not drawn)	-28%	-24%
CCN1C(=O)[C@H]2[C@@H](c3ccc(-c4ccc(Cl)c(Cl)c4)c(OC)c3)N[C@@](C)(C(=O)OC)[C@H]2C1=O	?	-19%
CC(NC(=S)NCCc1ccccc1)C(c1cccs1)N1CCN(Cc2ccccc2)CC1 (stereo not drawn)	?	i
COc1ccc(OCC(=O)NC(Cc2c[nH]c3ccccc23)C(=O)O)cc1 (stereo not drawn)	0%	-6%
CCOC(=O)Cc1csc(NC(=O)/C=C/c2ccc(OC)cc2)n1	-15%	i
O=C(/C(=C/O)N=Nc1ccccc1)c1ccncc1	-3%	/
O=C(c1ccc([N+](=O)[O-])cc1)N1CCSC1c1ccccc1 (stereo not drawn)	-8%	-22%
CCOC(=O)N1CCN(C(=O)c2ccc3nc(N4CCCCC4)sc3c2)CC1	-17%	/
Oc1ccccc1-c1nc(/C=C/c2ccccc2)nn1-c1ccccc1	1%&-25%	-5%&-13%
Cc1cc(C)n(CCC(=O)NCC2Cc3cc(Cl)cc(-c4cnccn4)c3O2)n1 (stereo not drawn)	-15%	-3%
Cn1c(-c2ccsc2)c(-c2cccs2)c2cc(-c3ccc4cc[nH]c4c3)ccc21	-23%	?
Cc1ccc(-c2nc3ccccc3c(=O)n2NC(=S)N(C)C)cc1	-5%	-22%
Cc1ccc(Cl)cc1N1CCN(C(=O)CCC(=O)Nc2ccc3nc(N4CCC(C)CC4)cc(C)c3c2)CC1	-4%	-4%
O=C(Nc1ccc(C(=O)N2CCN(c3ccc(Cl)cc3)CC2)cc1)C1=CSCCO1	-22%	i

Given bar-delimited: entries from further up.
SMILES | Vaccinia Venus | Vaccinia mCherry
O=C(/C(=C/O)N=Nc1ccccc1)c1ccncc1 | -3% | /
O=C(c1ccc([N+](=O)[O-])cc1)N1CCSC1c1ccccc1 (stereo not drawn) | -8% | -22%
CCOC(=O)N1CCN(C(=O)c2ccc3nc(N4CCCCC4)sc3c2)CC1 | -17% | /
Oc1ccccc1-c1nc(/C=C/c2ccccc2)nn1-c1ccccc1 | 1%&-25% | -5%&-13%
Cc1cc(C)n(CCC(=O)NCC2Cc3cc(Cl)cc(-c4cnccn4)c3O2)n1 (stereo not drawn) | -15% | -3%
Cn1c(-c2ccsc2)c(-c2cccs2)c2cc(-c3ccc4cc[nH]c4c3)ccc21 | -23% | ?
Cc1ccc(-c2nc3ccccc3c(=O)n2NC(=S)N(C)C)cc1 | -5% | -22%

(list continues)
SMILES	Vaccinia Venus	Vaccinia mCherry
COc1ccccc1C(=O)NCCC(=O)N1CCN(C(C)=O)CC1	-13%	-9%
O=C(O)c1nn(CC(=O)N(C2CCCCC2)C2CCCCC2)c(=O)c2ccccc12	-14%	i
O=C(NC1CCC(O)CC1)c1cc(Cl)c2c(c1)OCCO2 (stereo not drawn)	1%	-7%
CC1=NN(C(=S)Nc2ccccc2)C(C)(C)C1	-5%	-21%
CC(OC(=O)C1CCN(S(=O)(=O)c2ccc(C(C)(C)C)cc2)CC1)C(=O)N1CCOCC1 (stereo not drawn)	-3%	-14%
O=C(CN1C(=O)CSc2ccc(S(=O)(=O)N3CCOCC3)cc21)N1CCCCC1	-10%	-13%
CCOC(=O)C1CCCCN1Cc1ccc(F)cc1 (stereo not drawn)	-7%	-13%
Cc1ccc(NC(=O)C2CC(=O)N(Cc3ccccc3)C2)nc1 (stereo not drawn)	-14%	-18%
O=C(COC(=O)CNS(=O)(=O)c1ccccc1)Nc1ccc(Cl)cn1	-14%	/
Cc1cc(C)cc(NC(=S)N2CCN(c3ncc(C(F)(F)F)cc3Cl)CC2)c1	1%	i
CCOc1cccc(C2C=C(c3ccc4c(c3)OCO4)NC(c3ccc(Br)cc3)N2)c1O (stereo not drawn)	?	?
CC(=O)N1CCc2cc3nc(C)cc(C)c3cc21	0%	i
Cc1ccc(CSc2nc3c([nH]c4ccccc43)c(=O)n2C)cc1	-8%	-15%
CCOC(=O)C1CCN(C(=O)CSc2ccc(Cl)cc2)CC1	-2%	-11%
CCOC(=O)Cn1c(CN2CCOCC2)nc2c1c(=O)n(C)c(=O)n2C	14%	-7%
Cc1onc(-c2c(F)cccc2Cl)c1-c1nnc(-c2cccc3ccccc23)o1	6%	-7%
O=C(Nc1ccc(S(=O)(=O)Nc2nccs2)cc1)c1cccc(S(=O)(=O)N2CCOCC2)c1	-5%[7.34 µM]	-1%[7.34 µM]
CC1(C)CC(=O)c2cc(C(=O)Nc3ccc(Br)cc3)c(=O)[nH]c2C1	-3%	-1%
CCOC(=O)C1=CN(Cc2ccco2)S(=O)(=O)N(C)C1c1ccccc1 (stereo not drawn)	0%	i
CC(C)c1ccc(NC(=O)C2CCCCC2C(=O)O)cc1 (stereo not drawn)	6%	-7%
CCOc1ccc2nc(NC(=O)c3cccn(Cc4ccccc4Cl)c3=O)sc2c1	1%	4%
C=CCNc1nc(C(=O)OCC(=O)c2ccc(F)cc2)cs1	3%	-22%
CCN(CC)CCN1C(=O)c2ccccc2NC1c1cc(OC)c(OC)c(OC)c1 (stereo not drawn)	-6%	-11%
CC(C)N(C(=O)CSc1nnc(NC(=O)Cc2cccs2)s1)C(C)C	-10%	-11%
CCOC(=O)c1c(NC(=O)CSc2ncn[nH]2)sc(C(=O)N(C)C)c1C	-22%	i

(continued)
SMILES	Vaccinia Venus	Vaccinia mCherry
CCOC(=O)C1CCCN(S(=O)(=O)c2cc3c(cc2Cl)NC(=O)CO3)C1 (stereo not drawn)	-6%	-12%
O=C(NCCS(=O)(=O)N1CCN(c2ccccc2)CC1)c1cccc(F)c1	-7%	-9%
O=C(OCC(=O)N1CCN(C(=O)c2ccco2)CC1)c1ccccc1NCCO	-9%	-15%
CCCn1c(=N)c(S(=O)(=O)c2ccccc2)cc2c(=O)n3cccc(C)c3nc21	2%	-2%
O=S1(=O)N[C@@H](Cc2ccccc2)COc2cc(N3CC[C@H](O)C3)ccc21	-11%	-7%
COc1ccc(C)cc1NC(=O)NCc1ccc2c(c1)CCN2C(=O)c1ccccc1	-25%	-10%
O=C(Nc1cccc(C(=O)NC2CC2)c1)c1ccc(F)c(S(=O)(=O)N2CCOCC2)c1	-4%	-13%
O=C(CCSCCc1ccccn1)Nc1cccc([N+](=O)[O-])c1	4%	i
Cc1c(C(=O)N2CCC(Cc3ccccc3)CC2)sc2ncnc(N3CCC(C)CC3)c12	7%	0%
Cc1ccc(S(=O)(=O)N2CCOCC2)cc1NC(=O)COC(=O)c1cc(=O)c2ccccc2o1	-3%	-6%
CCN(CC)CCN1C(=O)C(=O)/C(=C(/O)c2ccccc2)C1c1ccccc1F (stereo not drawn)	-18%	/
CCc1nc2c(cnn2-c2ccc(C)cc2)c(=O)n1Cc1ccccc1	-12%	-18%
Cc1cc(C)c2nc(N3CCCC(C(=O)NCc4cccc(Cl)c4)C3)sc2c1 (stereo not drawn)	-17%	-10%
CCc1ccc(NC(=S)NCc2cccnc2)cc1	-4%	-12%
CC(C)(CO)NCc1ccccc1OCC(=O)Nc1ccccc1	-9%	-25%
Cc1noc(NS(=O)(=O)c2ccc(NC(=O)c3ccc(Br)cc3)cc2)c1C	6%	7%
CCc1c(C)sc2c1CCN(C(=O)Nc1cc(OC)c(OC)c(OC)c1)C2c1ccccc1 (stereo not drawn)	?	-28%
Cc1ccc2nc(COc3ccccc3NC(=O)c3ccccc3C)cc(=O)n2c1	-25%	-30%
COc1ccc(Cl)cc1S(=O)(=O)NC(C)c1cnn(-c2ccccn2)c1C (stereo not drawn)	-16%	i
Cc1ccc(C)c(N2CCN(S(=O)(=O)c3ccc(-c4cc(C(F)(F)F)on4)s3)CC2)c1	-8%	-8%
Cc1nn(-c2ccccc2)c(N)c1N=Nc1cccnc1	-29%	-26%
COc1ccc(C(=O)COc2ccc(F)cc2)c(O)c1C	-4%	-3%
N#Cc1cccc(C(=O)C(=O)N2CCC(c3ccccc3)CC2)c1	-13%	?
Nc1ncc2c(n1)-c1ccccc1CC2	-2%	-7%
C[C@@H]1CCCCO[C@H](CN(C)C(=O)Nc2ccccc2)[C@@H](C)CN([C@H](C)CO)C(=O)c2cc(NS(=O)(=O)c3cn(C)cn3)ccc2O1	-7%	-21%

(cont.)
SMILES	Vaccinia Venus	Vaccinia mCherry
CC(=O)Nc1nc(C)nc(C)c1C(C)=O	-9%	-18%
Cc1cc(C)nc(NC(=O)Cc2ccc(Br)cc2)n1	-12%	i
COc1cc(NC(=O)c2cccnc2Sc2ccc(Cl)cc2)cc(OC)c1OC	-11%	-1%
O=c1[nH]c(CN2CCOCC2)nc2ccccc12	5%	i
COc1ccc(N2CCN(Cc3nc4c(c(=O)[nH]c(=O)n4C)n3Cc3ccccc3C)CC2)cc1	0%	-2%
COC(=O)c1ccc(N)cc1O	-8%	-8%
Cc1cccc(Oc2nc3c(c(=O)n(C)c(=O)n3C)n2Cc2ccccc2)c1C	8%	-4%
NC(=O)c1ccsc1NC(=O)COC(=O)/C=C/c1ccccc1[N+](=O)[O-]	-12%	-14%
NC(=O)NCCCC(NC(=O)c1ccc(C#CC2(O)CCCCC2)cc1)C(=O)O (stereo not drawn)	1%	-5%
O=C(Cn1cnc2scc(-c3ccccc3)c2c1=O)NCc1ccco1	-17%	i
Cc1ccc(N(CC(=O)NCC2CCCO2)S(=O)(=O)c2ccccc2)c(C)c1 (stereo not drawn)	-25%	-18%
COCCOn1c(SCCOC)nc2ccccc2c1=O	-10%[7.34 µM]	-1%[7.34 µM]
O=C(CNC(=O)c1ccccc1Cl)Nc1ccc(F)cc1	-11%	i
NS(=O)(=O)c1ccc(NC(=O)c2ccc(F)cc2F)c(NC(=O)c2ccc(F)cc2F)c1	-5%	11%
O=[N+]([O-])c1ccc(Nc2ccccc2O)c([N+](=O)[O-])c1	-5%	?
COc1ccc(CC(O)CO)cc1OCc1ccccc1 (stereo not drawn)	-7%	i
Cc1ccc2nc(C(=O)N3CCCC(Nc4ccc(F)cc4)C3)cn2c1 (stereo not drawn)	-12%	i
COc1ccc(C)cc1NC(=O)C1CC(=O)N(CCc2ccccc2)C1 (stereo not drawn)	-14%	i
CCCCCN(C(=O)NC(=O)Nn1cnnc1)S(C)(=O)=O	-17%	-5%
O=C(NCc1cccnc1)c1csc([C@H]2C[C@H](O)[C@@H](CO)O2)n1	7%	5%
O=C(CCCC(=O)OCC(=O)c1cccs1)Nc1ccc(Oc2ccccc2)cc1	-14%	-14%
CCN(C(=O)C1CCCN(c2ncnc3onc(-c4ccc(F)cc4)c23)C1)c1ccccc1 (stereo not drawn)	-8%	i
CCn1c(C)c(C(C)=O)c(N2CCCCC2)nc1=S	-23%	/
CCOc1ccc(C(C(=O)NC2CCCCC2)N(C(=O)Cc2cccs2)c2ccc(-n3cnnn3)c(OC)c2)cc1 (stereo not drawn)	-9%	-13%
C[C@H](NC(=O)c1nc[nH]c1C(=O)NCc1ccc(CNC(=O)OC(C)(C)C)cc1)c1ccccc1	?	?

Reprinted at random: 4 compounds from above.
SMILES	Vaccinia Venus	Vaccinia mCherry
O=C(NCc1cccnc1)c1csc([C@H]2C[C@H](O)[C@@H](CO)O2)n1	7%	5%
Cc1cc(C)nc(NC(=O)Cc2ccc(Br)cc2)n1	-12%	i
CCCCCN(C(=O)NC(=O)Nn1cnnc1)S(C)(=O)=O	-17%	-5%
COc1cc(NC(=O)c2cccnc2Sc2ccc(Cl)cc2)cc(OC)c1OC	-11%	-1%

More entries
SMILES	Vaccinia Venus	Vaccinia mCherry
COc1ccccc1NC(=O)CC1COc2ccccc2O1 (stereo not drawn)	-18%	/
Cc1c(C(=O)N2CCOCC2)c(S(=O)(=O)Nc2cccc(C#N)c2)c(C)n1C	-13%	i
CCc1ccc(NC(=O)C(CC)c2ccccc2)cc1 (stereo not drawn)	-6%	-11%
CCCCNC(=O)[C@@H]1CC=C[C@@H]2CCN(C3CC3)C(=O)[C@@H]21	-8%&-1%	-18%
Cc1ccc(C(=O)CN2CCOCC2)cc1	-10%	-10%
Cc1cc(C)c(S(=O)(=O)N2CCCC2CNC(=O)c2ccc3c(c2)OCO3)c(C)c1 (stereo not drawn)	-24%	-15%
C[C@H](CO)N1C[C@H](C)[C@@H](CN(C)C(=O)c2ccncc2)OCc2cnnn2CCCC1=O	-9%	i
CCN(CCO)C(=O)C12CCC(C)(C(=O)C1)C2(C)C (stereo not drawn)	-12%	-13%
